Screening results (PubChem)
AF4-AF9 inh = inhibitors of AF4 peptide binding to AF9, primary screen, biochemical, AlphaScreen, biotin-AF4 peptide, FLAG-AF9, single point. Protein AF-9 (Homo sapiens), P42568. inhibition, % at 10 µM. AID 651704, 2012. actives 0.47% (n = 350,000);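 active = every replicate reaching a set inhibition limit, whatever the replicate mean, cut at about 25% in these data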;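 note: 0% = plate neutral control median and 100% = total signal loss; the record names both 10 and 1 µM as test concentration; the first replicate is given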
Target sequence (P42568 whole entry, looked up): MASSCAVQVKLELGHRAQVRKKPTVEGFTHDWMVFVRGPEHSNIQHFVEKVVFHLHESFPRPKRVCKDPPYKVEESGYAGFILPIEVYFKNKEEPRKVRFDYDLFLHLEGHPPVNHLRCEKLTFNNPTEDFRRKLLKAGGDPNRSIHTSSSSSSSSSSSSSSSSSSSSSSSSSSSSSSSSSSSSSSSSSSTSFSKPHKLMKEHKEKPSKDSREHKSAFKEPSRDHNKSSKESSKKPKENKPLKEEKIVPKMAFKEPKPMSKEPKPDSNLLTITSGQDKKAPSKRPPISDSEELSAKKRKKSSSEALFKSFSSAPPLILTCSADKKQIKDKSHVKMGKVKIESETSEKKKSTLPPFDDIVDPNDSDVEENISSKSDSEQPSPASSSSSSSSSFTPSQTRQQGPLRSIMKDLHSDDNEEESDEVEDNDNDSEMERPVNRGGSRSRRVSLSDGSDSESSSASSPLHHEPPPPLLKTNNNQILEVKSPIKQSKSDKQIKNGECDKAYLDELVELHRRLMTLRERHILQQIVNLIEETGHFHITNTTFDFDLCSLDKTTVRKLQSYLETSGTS
Ecoli rRNA inh = reduced GFP signal of wild-type E. coli, primary screen, bacterial rRNA inhibitor project, GFP/RFP fluorescence, OD600, single point. E. coli WT GFP vs humanized-ribosome RFP mutants, 24 h; hits give low values; DMSO median 0, no signal -100. GFP signal change (wild-type ribosome), % (no concentration beside the values). actives 1.6% (n = 350,000). AID 720706, 2013;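 active = significant combined selectivity score with lowered wild-type GFP, culture density cut under 30%, mutant RFP and density less affected; inactive = any of these conditions unmet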; note: one replicate is shown; some compounds called inactive have numbers as strong as hits
Ecoli rRNA inh OD600 = also measured in Ecoli rRNA inh; calls as there; OD600 change, %; measured here: OD600 growth;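 optical density of the mix in the first replicate; 0 = DMSO median and -100 = no signal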
Ecoli rRNA inh RFP = further read-out of Ecoli rRNA inh, marked with its call; RFP signal change, %; measured here: RFP humanized mutant strains;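 first replicate; 0 = DMSO median and -100 = no signal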
* marks the source's active call; other numbers are inactive results; & = joins results of further samples.

SMILES | AF4-AF9 inh | Ecoli rRNA inh | Ecoli rRNA inh OD600 | Ecoli rRNA inh RFP
COc1cccc(C(=O)N2C[C@H]3[C@@H](c4ccccc42)[C@H](CO)N3Cc2ccccc2F)c1 | 3.1 | -5 | -9 | -0.3
CO[C@@H]1CN(C)C(=O)c2cc(NC(=O)C3CCOCC3)ccc2OC[C@H](C)N(Cc2cccnc2)C[C@H]1C | -2.0 | 5 | 5 | 1.4
C[C@H](CO)N1C[C@H](C)[C@H](CN(C)C(=O)Nc2ccc3c(c2)OCO3)Oc2ncc(-c3cc4ccccc4o3)cc2C1=O | 8.9 | -1 | 4 | 0.1
O=C(C[C@H]1CC[C@@H]2[C@H](COC[C@H](O)CN2Cc2cccc(C(F)(F)F)c2)O1)NCc1ccc(Cl)cc1 | 0.3 | -36 | -67 | 3.5
Cc1noc(C)c1NC(=O)Nc1cccc2c1O[C@@H](CN(C)C(=O)NC(C)C)[C@@H](C)CN([C@@H](C)CO)C2=O | -2.2 | 1 | 7 | -1.5
Cc1ccc(-c2ccccc2[C@@H]2[C@H](C#N)N(S(C)(=O)=O)[C@H]2CO)cc1 | -3.2 | -3 | -25 | 3.1
C[C@H](CO)N1C[C@H](C)[C@H](CN(C)Cc2ccccc2)Oc2ncc(C#CCN(C)C)cc2C1=O | -5.2&-2.8 | 5 | 4 | -4.3
Cc1cccc(NC(=O)CNC(=O)[C@H]2O[C@@H](n3cnc4c(N)ncnc43)[C@H](O)[C@@H]2O)c1C | -0.7 | 0 | 4 | -2.8
COc1cccc(NC(=O)N(C)C[C@@H]2OCc3ccccc3-c3ccccc3C(=O)N([C@H](C)CO)C[C@@H]2C)c1 | -2.9 | 1 | 4 | -3.8
COCOc1cccc(CN2CCC2(C)C(=O)Nc2ccc(OC)c(OC)c2)c1 (configuration not stated) | 3.2 | -16 | -10 | 0.6
CC=Cc1ccc2n(c1=O)C[C@@H]1[C@@H](CO)[C@H](C(=O)N3CCc4ccccc4C3)N(C)[C@H]21 (mixture of isomers) | -9.1 | 4 | -2 | -3.1
C[C@@H]1CN([C@H](C)CO)C(=O)c2cc(NC(=O)CCN3CCOCC3)ccc2O[C@@H]1CN(C)S(=O)(=O)c1ccccc1 | 1.5 | 0 | 5 | -0.4
O=C(NCc1ccco1)c1[nH]c(C(F)(F)F)nc1-c1ccccc1 | 0.8 | 1 | 1 | 3.3
C[C@@H]1CN([C@H](C)CO)C(=O)c2cc(NC(=O)C3CC3)ccc2O[C@H]1CN(C)C(=O)Nc1ccccc1 | -4.4 | 4 | 11 | -1.4
O=C(C[C@@H]1CC[C@H](NS(=O)(=O)c2ccccc2F)[C@H](CO)O1)NCCCN1CCOCC1 | -1.0 | 0 | 3 | -1.8
CN1[C@H](C(=O)NCc2ccccn2)[C@@H](CO)[C@@H]2Cn3c(ccc(-c4ccc(F)cc4)c3=O)[C@@H]21 | -1.0 | 0 | 16 | 1.1
C[C@H](O)C#Cc1ccc2c(c1)O[C@H](CN(C)C)[C@H](C)CN([C@H](C)CO)S2(=O)=O | -3.8 | 5 | 8 | -0.1
O=S1(=O)CC(N2CCN(CCO)CC2)CN1Cc1cn(Cc2ccc(C(F)(F)F)cc2)nn1 (configuration not stated) | 1.3 | 10 | 4 | -0.6
C/C=C/c1ccc([C@@H]2[C@H](CO)N(C(C)=O)C23CN(C(=O)c2ccccc2)C3)cc1 | 3.5 | -2 | -9 | 2.4
C[C@@H]1CN([C@H](C)CO)C(=O)c2cc(-c3cccc(F)c3)cnc2O[C@@H]1CN(C)C(=O)c1ccccn1 | -5.0 | -2 | 5 | -3.9
O=C(N[C@H]1CC[C@H](CCNS(=O)(=O)c2ccc(F)cc2)O[C@@H]1CO)C1CCOCC1 | 0.5 | 1 | 4 | -2.7
C[C@H](CO)N1C[C@H](C)[C@@H](CN(C)C(=O)CC2CC2)Oc2ncc(-c3ccc(C#N)cc3)cc2C1=O | -2.3 | 2 | -5 | 1.2
C[C@H]1CN([C@@H](C)CO)C(=O)c2cc(C#CCC3CCCC3)cnc2O[C@@H]1CN(C)CC1CCOCC1 | 1.6 | 7 | 14 | -1.7
CN1OC[C@@H]2CN(C(=O)c3cccnc3)[C@H](c3ccc(N4CCCCC4)cc3)C[C@@H]21 | 1.5 | 18 | 19 | 1.9

One compound at a time, as listed above. Order of values: AF4-AF9 inh	Ecoli rRNA inh	Ecoli rRNA inh OD600	Ecoli rRNA inh RFP
C[C@@H]1CN([C@H](C)CO)C(=O)c2cc(NC(=O)C3CC3)ccc2O[C@H]1CN(C)C(=O)Nc1ccccc1 is entered as -4.4	4	11	-1.4
C[C@@H]1CN([C@H](C)CO)C(=O)c2cc(-c3cccc(F)c3)cnc2O[C@@H]1CN(C)C(=O)c1ccccn1 is entered as -5.0	-2	5	-3.9
O=C(C[C@@H]1CC[C@H](NS(=O)(=O)c2ccccc2F)[C@H](CO)O1)NCCCN1CCOCC1 is entered as -1.0	0	3	-1.8
O=C(N[C@H]1CC[C@H](CCNS(=O)(=O)c2ccc(F)cc2)O[C@@H]1CO)C1CCOCC1 is entered as 0.5	1	4	-2.7
CN1OC[C@@H]2CN(C(=O)c3cccnc3)[C@H](c3ccc(N4CCCCC4)cc3)C[C@@H]21 is entered as 1.5	18	19	1.9

The main list resumes with the 3 entries that preceded the break.
SMILES | AF4-AF9 inh | Ecoli rRNA inh | Ecoli rRNA inh OD600 | Ecoli rRNA inh RFP
C[C@H](CO)N1C[C@H](C)[C@@H](CN(C)C(=O)CC2CC2)Oc2ncc(-c3ccc(C#N)cc3)cc2C1=O | -2.3 | 2 | -5 | 1.2
C[C@H]1CN([C@@H](C)CO)C(=O)c2cc(C#CCC3CCCC3)cnc2O[C@@H]1CN(C)CC1CCOCC1 | 1.6 | 7 | 14 | -1.7
CN1OC[C@@H]2CN(C(=O)c3cccnc3)[C@H](c3ccc(N4CCCCC4)cc3)C[C@@H]21 | 1.5 | 18 | 19 | 1.9
O=C(C[C@@H]1C[C@@H]2c3cc(NC(=O)CC4CC4)ccc3O[C@@H]2[C@H](CO)O1)NCC(F)(F)F | -2.8 | 4 | 3 | -2.3
O=S1(=O)CC(N2CCN(CC3CC3)CC2)CN1Cc1ccccc1 (configuration not stated) | 0.8 | 25 | 10 | 0.2
COc1ccc2c3c([nH]c2c1)[C@H](CO)N(C(=O)c1ccccn1)CC31CN(C(=O)C2CCCCC2)C1 | 1.9 | 0 | -2 | -0.1
C[C@@H]1CN([C@@H](C)CO)C(=O)c2cc(-c3cccc(C#N)c3)cnc2O[C@@H]1CN(C)C(=O)C1CCCCC1 | 1.2 | -2 | 4 | -1.3
C[C@@H]1CCCCO[C@H](CN(C)S(=O)(=O)c2ccc(F)cc2)[C@@H](C)CN([C@@H](C)CO)C(=O)c2cc(NC(=O)CCC(F)(F)F)ccc2O1 | -12 | 0 | 0 | -0.6
CC(C)NC(=O)N(C)C[C@H]1Oc2ccc(NC(=O)Cc3cn(C)c4ccccc34)cc2C(=O)N([C@@H](C)CO)C[C@H]1C | -11 | 2 | 1 | -1.5
COc1ccc(NS(=O)(=O)c2cccc(C(=O)N3CCN(S(=O)(=O)c4ccccc4)CC3)c2)cc1 | 1.2 | 0 | -10 | 4.4
Clc1ccc(-c2cnc3cccnn23)cc1 | -13 | -19 | -22 | -6.8
Cc1ccc(-c2nc3c4ccccc4ccn3c2Cc2cccc(Cl)c2)cc1 | 0.7 | 7 | 8 | 28
CC(=O)Nc1cccc(-c2ccnc3c2CC(C)(C(=O)Nc2cccc(Oc4ccccc4)c2)O3)c1 (configuration not stated) | -0.6 | 4 | 5 | 3.8
C[C@@H]1CN([C@H](C)CO)C(=O)c2cccc(NC(=O)C3CC3)c2O[C@H]1CN(C)Cc1ccc(C(F)(F)F)cc1 | 0.3 | -7 | -6 | -2.3
C[C@@H]1CN([C@@H](C)CO)C(=O)c2cccc(NC(=O)Nc3cccc4ccccc34)c2O[C@@H]1CN(C)CC1CC1 | 1.0 | 1 | 6 | -1.7
Cc1nc(N2[C@H](C#N)[C@H](c3ccccc3)[C@H]2CO)sc1C | -0.7 | -1 | 5 | 1.9
Cn1ccc2c(-c3ccc(C(=O)O)cc3)cc3c(c21)C1CCC3C1 (configuration not stated) | -1.4 | 1 | -8 | 1.4
N#C[C@H]1[C@H](c2ccccc2C2=CCCCC2)[C@H](CO)N1C(=O)NC1CCCCC1 | -1.1 | -6 | -46 | -6.9
CC(=O)N1[C@@H]2c3ccc(-c4ccccc4)c(=O)n3C[C@H]1[C@H](CO)[C@H]2C(=O)N1CCCCC1 | -0.3 | 1 | 4 | -2.9
COc1ccccc1CNC(=O)C[C@H]1C[C@H]2c3cc(NC(=O)C4CCOCC4)ccc3O[C@H]2[C@H](CO)O1 | 6.4 | 4 | 14 | -3.7
C[C@H]1CN([C@@H](C)CO)C(=O)c2cc(C#CCc3ccccc3)cnc2O[C@H]1CN(C)Cc1ccc(C(=O)O)cc1 | -0.5 | 3 | 22 | -1.4
CCCNC(=O)C1(C)CCCN(Cc2ccsc2)C1 (configuration not stated) | -2.4 | 12 | 8 | -1.5
CSCCC(c1nc2ccccc2[nH]1)n1c(C)nc2ccccc21 (configuration not stated) | -0.6 | 2 | 1 | -1.0
C[C@@H]1CN([C@@H](C)CO)C(=O)Cc2cc(NC(=O)NC3CCCCC3)ccc2O[C@@H]1CN(C)Cc1ccc2c(c1)OCO2 | 5.8 | -4 | -13 | -0.3
O=C(CC[C@H]1O[C@@H](n2ccc(=O)[nH]c2=O)[C@H](O)[C@@H]1O)NCc1ccco1 | 0.6 | 6 | 4 | 3.5
O=C(O)c1nc(-c2ccccc2)c(C(=O)NC2CC2)[nH]1 | -3.4 | 21 | 18 | 4.0
COCC#Cc1ccc2c(c1)O[C@@H](CN(C)C(C)=O)[C@H](C)CN([C@@H](C)CO)S2(=O)=O | -1.6 | -4 | -10 | 0.4
Cc1ccc(S(=O)(=O)Nc2ccc3c(c2)C(=O)N([C@@H](C)CO)C[C@@H](C)[C@@H](CN(C)S(=O)(=O)c2ccc(C)cc2)OCCCC[C@H](C)O3)cc1 | -5.6 | 0 | 9 | 2.5
C[C@@H]1CN([C@@H](C)CO)C(=O)Cc2cc(NC(=O)Cc3ccccc3)ccc2O[C@H]1CN(C)Cc1ccc(Oc2ccccc2)cc1 | 3.9 | -5 | -13 | 21
Cc1ccc(S(=O)(=O)N(C)C[C@@H]2Oc3ccc(NS(=O)(=O)c4ccccc4)cc3CC(=O)N([C@@H](C)CO)C[C@@H]2C)cc1 | -8.1 | 1 | -3 | 0.4
CCNC(=O)C1(C)CCN(C(=O)c2ccccc2)C1 (configuration not stated) | -0.9 | 12 | 12 | 2.6
Cc1ccccc1C(=O)Nc1nnc([C@@H]2C[C@H](O)[C@@H](CO)O2)s1 | -0.8 | 3 | 12 | -2.7
COc1ccc(NC(=O)Nc2ccc3c(c2)C(=O)N([C@@H](C)CO)C[C@@H](C)[C@H](CN(C)Cc2ccc(Cl)c(Cl)c2)OCCCC[C@H](C)O3)cc1 | -0.7 | 2 | -2 | -0.6
COCC(=O)N1CCCCN2[C@H](CO)[C@H](c3ccc(C#Cc4ccc(OC)cc4)cc3)[C@H]2C1 | -3.4 | -3 | 6 | 6.9
Cc1noc(C)c1S(=O)(=O)N(C)C[C@H]1Oc2ccc(N(C)C)cc2CC(=O)N([C@H](C)CO)C[C@@H]1C | 8.2 | 0 | 13 | 2.4
CCCCNC(=O)C[C@H]1C[C@@]2(C(=O)OC)C(=C[C@H](COCc3ccccc3)O[C@@H]2C)N(Cc2ccc3c(c2)OCO3)C1=O | -0.9 | -15 | -24 | 4.8
C[C@H](NC(=O)C[C@H]1C[C@@H]2c3cc(NC(=O)Nc4ccc(C(F)(F)F)cc4)ccc3O[C@@H]2[C@H](CO)O1)c1ccccc1 | -0.3 | -13 | -40 | 32
C/C=C/c1ccc([C@@H]2[C@H](C#N)N(C(=O)Cc3ccccn3)[C@H]2CO)cc1 | 2.2 | 1 | 8 | -3.4
COC(=O)N1CCCCC1c1cc(C(=O)NCc2ccc(F)cc2)no1 (configuration not stated) | 1.0 | 2 | 0 | 1.7
N#C[C@H]1[C@@H](c2ccc(C3=CCCC3)cc2)[C@@H](CO)N1C(=O)c1cccc(F)c1 | -2.8 | 1 | -8 | 0.0
C[C@@H]1CN([C@H](C)CO)C(=O)c2cc(NC(=O)Nc3ccccc3)ccc2O[C@@H]1CN(C)C(=O)Nc1cccc2ccccc12 | -3.4 | 1 | 2 | 1.3
CC=Cc1ccc2n(c1=O)C[C@@H]1[C@@H](CO)[C@H](C(=O)NCC3CCCCC3)[C@H]2N1C(=O)CC (mixture of isomers) | -1.6 | 3 | 5 | -2.6
CC(C)CC#Cc1cnc2c(c1)C(=O)N([C@H](C)CO)C[C@H](C)[C@@H](CN(C)S(=O)(=O)c1cn(C)cn1)O2 | -2.2 | -3 | 0 | -0.6
C[C@@H]1CN([C@@H](C)CO)C(=O)c2cccc(NS(=O)(=O)c3ccc(Cl)cc3)c2O[C@H]1CN(C)C(=O)Nc1ccccc1 | -10 | -2 | -1 | -1.8
CCC(=O)N1C[C@H](C)[C@@H](OC)CN(C)C(=O)c2cc(NS(=O)(=O)CC)ccc2OC[C@H]1C | -5.4 | -2 | 0 | -0.4

Some of the compounds tested, so the mix of outcomes need not match the whole.
